Vaccinia mCherry: vaccinia inhibition (mCherry reporter). Vaccinia virus mCherry reporter infection, fluorescence; about a quarter of the inactives have no number. Potency, µM (top dose mostly 36.5 µM), inactives show top-dose activity change, negative = inhibition, most hits filed as inhibitors. 310,000 tested, 0.63% active; active = well fitted inhibition curve with a large enough effect; inconclusive = small, poorly fitted or top-dose-only effect; inactive = no such curve, though single readings can be large or run the other way; tested in A549 cells; also: nearly all actives have a fitted effect of over 35% in size; inactives centre near -10
VACV Venus inh: vaccinia inhibition (Venus reporter); Potency, µM (doses to about 36.5 µM), for inactives: at the highest dose activity change, negative = inhibition, actives largely listed as inhibitors; Vaccinia virus Venus reporter expression, fluorescence; 330,000 tested, 0.46% active; active means well fitted inhibition curve with a large enough effect; inconclusive means small, poorly fitted or top-dose-only effect; inactive means no such curve, though single readings can be large or run the other way; tested in A549 cells; also: nearly all actives have a fitted effect of over 30% in size; inactives centre near -10
Numbers without * were called inactive; & = joins results of further samples. % is scaled to controls: 0 for no effect and ±100 for the full control effect; potency is read from the fitted curve at half-maximal effect. Outcome played no part in choosing rows; 0.87% or so of the library scored in one or more.

Results for CC(=O)c1ccc(N2CCN(C(=O)Nc3ccc(C(C)C)cc3)CC2)cc1 ?
Vaccinia mCherry: inconclusive; VACV Venus inh: -28%&-29%

How did O=C(c1ccc(C#CC2(O)CCCCC2)cc1)N1CCN(Cc2ccccc2)CC1 do in these assays?
VACV Venus inh: -22%

How did COc1ccccc1N1CCN(C2CCCN(C(=O)c3ccoc3)C2)CC1 (centres undefined) do in these assays?
Vaccinia mCherry: -1%; VACV Venus inh: -19%

How did COc1cc(C(=O)NNC(=O)c2cc(=O)[nH]c3ccccc23)cc(OC)c1OC do in these assays?
Vaccinia mCherry: -18%; VACV Venus inh: -7%

What do the screens show for `Cc1ccc(S(=O)(=O)N2C[C@H]3[C@H]4C(=O)N(c5ccccc5)C(=O)[C@H]4C[C@H](OC(=O)Nc4cccs4)[C@@]3(O)C2)cc1`?
Vaccinia mCherry: inactive; VACV Venus inh: -3%

Results for CCN(CC)CCNC(=O)c1ccc(NC(=O)Cc2cccc3ccccc23)cc1 ?
Vaccinia mCherry: -5%; VACV Venus inh: -12%

What do the screens show for `COc1ccccc1CNC(=O)COC(=O)C1CCN(S(=O)(=O)c2ccccc2)CC1`?
Vaccinia mCherry: -4%; VACV Venus inh: 2%

How did Cc1cccc(Oc2cc(NC(=O)Cn3cnc([N+](=O)[O-])n3)cc([N+](=O)[O-])c2)c1 do in these assays?
Vaccinia mCherry: -26%; VACV Venus inh: inconclusive

Results for CCN(Cc1ccncc1)Cc1ccc2c(c1)CN(C(=O)c1ccc(C#CC(C)(C)O)o1)CCO2 ?
Vaccinia mCherry: -6%; VACV Venus inh: 6%

Results for CC(CN(C)C)CN1c2ccccc2CCc2ccccc21 (centres undefined) ?
Vaccinia mCherry: -27%&-19%; VACV Venus inh: inconclusive

Four compounds from above, arranged by count of non-hydrogen atoms, descending.
What do the screens show for `Cc1ccc(S(=O)(=O)N2C[C@H]3[C@H]4C(=O)N(c5ccccc5)C(=O)[C@H]4C[C@H](OC(=O)Nc4cccs4)[C@@]3(O)C2)cc1`?
Vaccinia mCherry: inactive; VACV Venus inh: -3%

How did COc1cc(C(=O)NNC(=O)c2cc(=O)[nH]c3ccccc23)cc(OC)c1OC do in these assays?
Vaccinia mCherry: -18%; VACV Venus inh: -7%

Results for CC(=O)c1ccc(N2CCN(C(=O)Nc3ccc(C(C)C)cc3)CC2)cc1 ?
Vaccinia mCherry: inconclusive; VACV Venus inh: -28%&-29%

Results for CC(CN(C)C)CN1c2ccccc2CCc2ccccc21 (centres undefined) ?
Vaccinia mCherry: -27%&-19%; VACV Venus inh: inconclusive

The main list resumes, starting 2 compounds before the break.
Results for CCN(Cc1ccncc1)Cc1ccc2c(c1)CN(C(=O)c1ccc(C#CC(C)(C)O)o1)CCO2 ?
Vaccinia mCherry: -6%; VACV Venus inh: 6%

Results for CC(CN(C)C)CN1c2ccccc2CCc2ccccc21 (centres undefined) ?
Vaccinia mCherry: -27%&-19%; VACV Venus inh: inconclusive

Results for Cc1ccc(C(=O)NC(=S)Nc2ccc(N3CCOCC3)cc2)c(C)c1 ?
Vaccinia mCherry: -14%; VACV Venus inh: -8%

Results for O=C(CCN1C(=O)c2ccncc2C1=O)NCc1ccc(Cl)cc1 ?
Vaccinia mCherry: -27%; VACV Venus inh: -17%

Results for O=C(NCc1cccc(Cl)c1)c1ccc(S(=O)(=O)N2CCCCC2)cc1 ?
Vaccinia mCherry: -10%; VACV Venus inh: -23%

What do the screens show for `COc1ccc(S(=O)(=O)N/N=C\c2ccc([N+](=O)[O-])o2)c(OC)c1`?
Vaccinia mCherry: 0%; VACV Venus inh: -5%

Results for CC1CCC(NC(=O)c2ccc(CS(=O)(=O)Cc3ccccc3F)o2)CC1 (centres undefined) ?
Vaccinia mCherry: -3%; VACV Venus inh: -21%

What do the screens show for `CSc1ccccc1NC(=O)COC(=O)CCc1ccccc1`?
Vaccinia mCherry: inactive; VACV Venus inh: -6%

Results for COc1ccc(CC(=O)Nc2cc(S(C)(=O)=O)ccc2Cl)cc1S(=O)(=O)N1CCOCC1 ?
Vaccinia mCherry: -13%; VACV Venus inh: -15%

What do the screens show for `CC(=O)NS(=O)(=O)c1ccc(NC(=S)NC(=O)C(C)(C)C)cc1`?
Vaccinia mCherry: -14%; VACV Venus inh: -8%

Results for O=C(NCCN1CCNC1=O)c1ccc2sc([C@@H]3O[C@H](CO)[C@H](O)[C@H](O)[C@H]3O)nc2c1 ?
Vaccinia mCherry: 7%; VACV Venus inh: -2%

Results for Cc1nc2sc(C(c3cccs3)N3CC(C)CC(C)C3)c(O)n2n1 (centres undefined) ?
Vaccinia mCherry: -7%; VACV Venus inh: -18%

How did CC(=O)OC(C)(C)/C=C/C(=O)C(C)(O)C1C(O)CC2(C)C3CC=C4C(CC(O)C(=O)C4(C)C)C3(C)C(=O)CC12C (centres undefined) do in these assays?
Vaccinia mCherry: inconclusive; VACV Venus inh: 40µM*

Results for Cc1noc(C)c1S(=O)(=O)Nc1ccc2c(c1)C(=O)N([C@H](C)CO)C[C@H](C)[C@H](CN(C)S(=O)(=O)c1ccc(Cl)cc1)OCCCC[C@@H](C)O2 ?
Vaccinia mCherry: 6%; VACV Venus inh: -16%

How did CC(=O)C1=C(O)C(=O)N(CCC(=O)O)C1c1ccc(Cl)cc1Cl (centres undefined) do in these assays?
Vaccinia mCherry: -5%; VACV Venus inh: -11%

How did C/C=C/c1ccc(Oc2nnnn2-c2ccc(C(N)=O)cc2)c(OC)c1 do in these assays?
Vaccinia mCherry: inactive; VACV Venus inh: -8%

Results for O=C(CSc1nc(-c2ccccc2)cs1)NC(=O)NCc1ccco1 ?
Vaccinia mCherry: inactive; VACV Venus inh: -15%

Results for O=C(O)/C=C\C(=O)Nc1ccc(OC(F)F)cc1 ?
Vaccinia mCherry: -13%; VACV Venus inh: -5%

What do the screens show for `CC1CCCCN1CCNC(=O)CN1C(=O)CSc2ccc(S(=O)(=O)N3CCCCC3)cc21` (centres undefined)?
Vaccinia mCherry: inactive; VACV Venus inh: -9%

How did CCn1cc(C(=O)Nc2cccc(NC(C)=O)c2)c2cc(OC)c(OC)cc2c1=O do in these assays?
Vaccinia mCherry: -17%; VACV Venus inh: -10%

Results for O=C(NCc1ccccn1)c1cnn(-c2ncc3c(n2)-c2ccccc2CC3)c1C1CC1 ?
Vaccinia mCherry: -14%; VACV Venus inh: -9%

What do the screens show for `O=S(=O)(Cc1ccccc1)NCC1CCCN(Cc2cccc3nonc23)C1` (centres undefined)?
Vaccinia mCherry: -12%; VACV Venus inh: -7%

Grouped by structure: the compounds so far containing fluorine
Results for CC1CCC(NC(=O)c2ccc(CS(=O)(=O)Cc3ccccc3F)o2)CC1 (centres undefined) ?
Vaccinia mCherry: -3%; VACV Venus inh: -21%

Results for O=C(O)/C=C\C(=O)Nc1ccc(OC(F)F)cc1 ?
Vaccinia mCherry: -13%; VACV Venus inh: -5%

(more compounds)
Results for Cc1cc(C)n(-c2cccc(C(=O)NCC3Cc4cc(Cl)cc(-c5cnccn5)c4O3)c2)n1 (centres undefined) ?
Vaccinia mCherry: -19%; VACV Venus inh: -5%

Results for CC(=O)c1cccc(NC(=O)c2nc3ccccc3nc2N2CCCCC2)c1 ?
Vaccinia mCherry: 4%; VACV Venus inh: 4%

What do the screens show for `O=C(c1c(F)cccc1F)N1CCCC(c2nc(-c3cccs3)no2)C1` (centres undefined)?
Vaccinia mCherry: -7%; VACV Venus inh: 0%

Results for COC(=O)C1C(=O)C(C(=O)/C=C/c2ccccc2)C(=O)CC1(C)C (centres undefined) ?
Vaccinia mCherry: 11µM*; VACV Venus inh: inconclusive

What do the screens show for `CN1CCN(c2ccnc(N(C)CCCCCCN)n2)CC1`?
Vaccinia mCherry: -12%; VACV Venus inh: -15%

Results for O=C(NCCCN1CCCC(O)C1)c1cc(COc2ccc(F)cc2F)on1 (centres undefined) ?
Vaccinia mCherry: -2%; VACV Venus inh: -13%

How did COc1ccccc1NC(=O)c1ccccc1Nc1ccccc1 do in these assays?
Vaccinia mCherry: -6%; VACV Venus inh: -19%

How did Cn1c(=N)n(CC(=O)c2ccc(F)cc2)c2ccccc21 do in these assays?
Vaccinia mCherry: -18%; VACV Venus inh: -13%

What do the screens show for `O=C(Nc1ccccc1C(=O)NCc1ccco1)Nc1cccc2ccccc12`?
Vaccinia mCherry: -14%; VACV Venus inh: inconclusive

Results for CC12CC3CC(C)(C1)CC(C(=O)NC(=S)N1CCOCC1)(C3)C2 ?
Vaccinia mCherry: inactive; VACV Venus inh: -11%

How did CCOC(=O)[C@H]1[C@H]2COc3ccc(Cl)cc3[C@H]2N2C(=O)CNC(=O)[C@@]12C do in these assays?
Vaccinia mCherry: inactive; VACV Venus inh: -11%

How did CCCCC[C@@H]1[C@H]2[C@H]3C(=O)N(c4ccccc4)C(=O)[C@H]3CC(=O)[C@H]2[C@H](c2ccccc2)N1S(=O)(=O)c1ccc(C)cc1 do in these assays?
Vaccinia mCherry: 7%; VACV Venus inh: -2%

What do the screens show for `O=C(c1ccc(Cl)cc1)N1CCn2c1nc1ccccc12`?
Vaccinia mCherry: inactive; VACV Venus inh: -3%

How did CC(=O)c1c(C)oc2ccc(N(C(C)=O)S(=O)(=O)c3ccc(Br)cc3)cc12 do in these assays?
Vaccinia mCherry: -6%; VACV Venus inh: inconclusive

How did Cc1ccc2[nH]c(=O)c(CN(Cc3ccccc3)C(=S)NCCCN(C)C)cc2c1 do in these assays?
Vaccinia mCherry: -17%; VACV Venus inh: -27%

What do the screens show for `Cc1cc(C)n(CCN(C)C(=O)CCc2nnc(CCC3CCCCC3)o2)n1`?
Vaccinia mCherry: inactive; VACV Venus inh: -14%

What do the screens show for `CCN1C(=O)[C@H]2[C@@H](c3ccc(C)cc3)N[C@]3(CCCN(Cc4ccc(OC)cc4)C3=O)[C@H]2C1=O`?
Vaccinia mCherry: inactive; VACV Venus inh: -12%

Results for Cc1ccc(NC2CCCN(C(=O)c3cccc4nccnc34)C2)cc1C (centres undefined) ?
Vaccinia mCherry: -6%; VACV Venus inh: 4%

What do the screens show for `Nc1n[nH]c(-c2cccc([N+](=O)[O-])c2)n1`?
Vaccinia mCherry: -9%; VACV Venus inh: -8%

What do the screens show for `COC(=O)c1cc(NC(=O)CC2C(=O)OCCN2Cc2ccccc2)cc(C(=O)OC)c1` (centres undefined)?
Vaccinia mCherry: -9%; VACV Venus inh: -1%

What do the screens show for `Nc1ccc(C(=O)OC2CCOC2=O)cc1[N+](=O)[O-]` (centres undefined)?
Vaccinia mCherry: -5%; VACV Venus inh: -4%

What do the screens show for `Cn1c(C(=O)N2CCC(C(=O)NCCc3ccc(S(N)(=O)=O)cc3)CC2)cc2sccc21`?
Vaccinia mCherry: 4%; VACV Venus inh: -2%

What do the screens show for `Cc1sc2ncn(CC(=O)N(C)c3ccc(Br)cc3)c(=O)c2c1S(=O)(=O)N1CCC(C)CC1`?
Vaccinia mCherry: -18%; VACV Venus inh: 2%

What do the screens show for `O=C(CN1C(=O)NC2(CCCCCC2)C1=O)NCc1ccc(Cl)cc1`?
Vaccinia mCherry: -25%; VACV Venus inh: -19%

Results for CCOc1ccc2nc(N(Cc3cccnc3)C(=O)c3cccs3)sc2c1 ?
Vaccinia mCherry: -3%; VACV Venus inh: -14%

What do the screens show for `CC1=C(C(=O)N2CCOCC2)CC(CC(=O)NCCCN(C)C)C(=O)N1CCCN1CCCC1=O` (centres undefined)?
Vaccinia mCherry: -3%; VACV Venus inh: 1%

What do the screens show for `CCOc1cc(C2NC(=O)NC(O)(C(F)(F)F)C2C(=O)c2ccc(OC)cc2)ccc1O` (centres undefined)?
VACV Venus inh: -6%

How did CCc1ccc(C(=O)c2cn(CC(=O)Nc3ccc4c(c3)OCO4)c3cc(OC)c(OC)cc3c2=O)cc1 do in these assays?
Vaccinia mCherry: -1%; VACV Venus inh: -23%

How did CCOc1cc(/C=C(\C#N)C(=O)Nc2ccccn2)ccc1O do in these assays?
Vaccinia mCherry: inactive; VACV Venus inh: 4%

Results for C1=C(c2ccccc2)Nc2nnnn2C1c1cccs1 (centres undefined) ?
VACV Venus inh: -9%

What do the screens show for `Cc1ccc(C)c(OCC(=O)Nc2ccc(C(=O)O)cc2NC(=O)COc2cc(C)ccc2C)c1`?
Vaccinia mCherry: -2%; VACV Venus inh: -7%

Results for Nc1nonc1-n1nnc(C(=O)N/N=C/c2ccccc2Cl)c1-c1ccccc1 ?
Vaccinia mCherry: -12%; VACV Venus inh: -7%

Results for O=C(Nc1ccc(S(=O)(=O)Nc2ccccn2)cc1)c1ccc(Cl)cc1Cl ?
Vaccinia mCherry: -5%; VACV Venus inh: -6%

How did COc1cc(NC(=O)Cc2cccs2)ccc1-n1cnnn1 do in these assays?
VACV Venus inh: -12%

What do the screens show for `O=C(CSc1ccccc1F)NCCCN1CCCC1=O`?
Vaccinia mCherry: inactive; VACV Venus inh: -5%

What do the screens show for `CCn1cc(CN2CCC(n3nccc3NC(=O)C(OC)c3ccccc3)CC2)cn1` (centres undefined)?
Vaccinia mCherry: -12%; VACV Venus inh: -18%

Results for c1cncc(C2Nc3cccc4cccc(c34)N2)c1 ?
Vaccinia mCherry: inconclusive; VACV Venus inh: -5%

How did O=C(Nc1nnc(SCc2ccccc2F)s1)C1=COCCO1 do in these assays?
Vaccinia mCherry: -1%; VACV Venus inh: -5%

Results for Cc1c(NC(=O)c2ccc(N3CCC(C)CC3)c([N+](=O)[O-])c2)cccc1-c1nc2ccccc2o1 ?
Vaccinia mCherry: -23%; VACV Venus inh: -21%

Results for CCc1noc(C)c1C(=O)Nc1nnc(CC(C)C)s1 ?
Vaccinia mCherry: -21%; VACV Venus inh: -6%

What do the screens show for `CC(=O)N1CCOc2cc(S(=O)(=O)Nc3c(C)cccc3C(C)C)c(Cl)cc21`?
Vaccinia mCherry: -21%; VACV Venus inh: -14%

Assay outcomes: PubChem, National Center for Advancing Translational Sciences (NCATS)
